KCNQ2 enhance: enhances the rat KCNQ2 potassium channel. 310,000 tested, 0.54% active. CHO-K1 KCNQ2, FluxOR thallium flux fluorescence; active compounds read high. B-score at 10 µM;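 active means fluorescence ratio B-score at least 3 SD of library B-scores, with initial fluorescence B-score within 3 SD, cut at about 5.3 in these data; same plate scores as AID 2156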;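 further: B-score of peak minus minimum over baseline fluorescence ratio after K+ and Tl+ stimulus; positive B-score means potentiation of KCNQ2 with more thallium influx and brighter signal; only the inactives scoring about 0 or higher are listed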
Target sequence (O88943 whole entry, looked up): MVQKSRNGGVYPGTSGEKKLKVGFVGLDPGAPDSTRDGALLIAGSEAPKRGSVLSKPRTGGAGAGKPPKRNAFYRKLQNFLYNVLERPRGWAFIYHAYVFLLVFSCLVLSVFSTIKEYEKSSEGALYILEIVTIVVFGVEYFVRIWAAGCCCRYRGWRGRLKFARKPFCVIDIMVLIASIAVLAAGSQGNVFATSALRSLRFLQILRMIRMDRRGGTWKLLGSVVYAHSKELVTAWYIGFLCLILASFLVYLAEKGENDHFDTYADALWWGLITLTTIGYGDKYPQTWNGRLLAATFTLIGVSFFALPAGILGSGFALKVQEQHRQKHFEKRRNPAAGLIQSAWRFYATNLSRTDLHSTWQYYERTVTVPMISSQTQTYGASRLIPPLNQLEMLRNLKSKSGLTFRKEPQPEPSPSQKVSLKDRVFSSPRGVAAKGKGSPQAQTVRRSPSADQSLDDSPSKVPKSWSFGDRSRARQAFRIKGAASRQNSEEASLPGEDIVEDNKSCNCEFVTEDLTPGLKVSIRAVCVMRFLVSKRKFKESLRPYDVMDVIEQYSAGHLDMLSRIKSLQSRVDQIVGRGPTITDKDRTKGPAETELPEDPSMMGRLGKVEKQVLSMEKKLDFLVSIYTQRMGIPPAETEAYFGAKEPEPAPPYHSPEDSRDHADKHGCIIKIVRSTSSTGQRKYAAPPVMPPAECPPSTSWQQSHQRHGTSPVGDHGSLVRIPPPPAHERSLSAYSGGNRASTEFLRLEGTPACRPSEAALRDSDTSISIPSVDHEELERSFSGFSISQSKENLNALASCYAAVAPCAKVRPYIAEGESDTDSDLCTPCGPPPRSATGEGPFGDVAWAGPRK
KCNQ2 enhance baseline: further read-out of KCNQ2 enhance, marked with its call; B-score; compound at 10 µM; measured here: initial fluorescence intensity artifact check;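 brightness before thallium and not channel activity; 0 = typical well and far values either way flag optical interference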
The depositor's hits bear a star. The list is partial; rates above refer to the full screens.

The first two entries, to show the layout:
SMILES	KCNQ2 enhance	KCNQ2 enhance baseline
COc1cccc2cc(/C(=N/O)c3ccccc3)oc12	0.03	0.83
Cc1noc(C)c1COc1ccc(C(=O)OCC(=O)Nc2c(C)n(C)n(-c3ccccc3)c2=O)cc1	0.51	0.02

All compounds of this part, from the first entry:
SMILES	KCNQ2 enhance	KCNQ2 enhance baseline
COc1cccc2cc(/C(=N/O)c3ccccc3)oc12	0.03	0.83
Cc1noc(C)c1COc1ccc(C(=O)OCC(=O)Nc2c(C)n(C)n(-c3ccccc3)c2=O)cc1	0.51	0.02
COCc1cc(=O)[nH]c(/N=C(\N)Nc2ccc(Oc3ccccc3)cc2)n1	0.02	1.62
O=C(NNS(=O)(=O)c1cc(Cl)cc(Cl)c1)c1sccc1-n1cccc1	2.1	0.29
O=C1C2C3c4ccccc4C(c4ccccc43)C2C(=O)N1Cc1ccco1 (stereo unspecified)	0.06	0.64
COc1ccc(N=Nc2ccc(O)c3ncccc23)cc1	4.69	-0.1
Cn1c(N)cc(=O)n(Cc2ccccc2)c1=O	0.32	-1.6
O=C(O)C1CCCN(C(=O)c2cccc3ccccc23)C1 (stereo unspecified)	0.64	1.32
O=C(CSc1nc2ccccc2o1)Nc1ccc(Cl)cc1	0.08	0.19
CCCCn1c(N)c(N(CC(C)C)C(=O)c2ccc(-c3ccc([N+](=O)[O-])cc3)o2)c(=O)[nH]c1=O	0.54	-0.91
CC1=C(C(=O)N2CCOCC2)C(c2ccc(Cl)cc2)NC(=S)N1 (stereo unspecified)	0.06	0.06
COCCCn1c(C)nnc1SCC(=O)NCc1ccco1	1.25	0.35

Record cards, as listed above. Screens in order: KCNQ2 enhance, KCNQ2 enhance baseline
CCCCn1c(N)c(N(CC(C)C)C(=O)c2ccc(-c3ccc([N+](=O)[O-])cc3)o2)c(=O)[nH]c1=O across the screens: 0.54, -0.91
CC1=C(C(=O)N2CCOCC2)C(c2ccc(Cl)cc2)NC(=S)N1 (stereo unspecified) across the screens: 0.06, 0.06

Some of these compounds in order of the KCNQ2 enhance baseline value, ascending:
SMILES	KCNQ2 enhance	KCNQ2 enhance baseline
CCCCn1c(N)c(N(CC(C)C)C(=O)c2ccc(-c3ccc([N+](=O)[O-])cc3)o2)c(=O)[nH]c1=O	0.54	-0.91
COc1ccc(N=Nc2ccc(O)c3ncccc23)cc1	4.69	-0.1
Cc1noc(C)c1COc1ccc(C(=O)OCC(=O)Nc2c(C)n(C)n(-c3ccccc3)c2=O)cc1	0.51	0.02
O=C(CSc1nc2ccccc2o1)Nc1ccc(Cl)cc1	0.08	0.19
COCCCn1c(C)nnc1SCC(=O)NCc1ccco1	1.25	0.35
COCc1cc(=O)[nH]c(/N=C(\N)Nc2ccc(Oc3ccccc3)cc2)n1	0.02	1.62

Next section
SMILES	KCNQ2 enhance	KCNQ2 enhance baseline
FC(F)(F)c1nnc2n1N=C(c1ccccc1)CS2	0.17	-1.92
Cc1cc(Nc2ccc(F)c(F)c2)nc(-c2ccccc2O)n1	1.13	0.88
COc1ccccc1CNC(=O)CSc1nc(-c2ccccc2)cn1N	0.67	-0.26
CC(C)C(=O)NC(c1ccc([N+](=O)[O-])cc1)c1c(O)ccc2ccccc12 (stereo unspecified)	0.55	0.69
COc1cccc(C(=S)N2CCOCC2)c1OS(=O)(=O)c1ccc(Cl)cc1	0.88	1.12
O=C(Nc1ncccc1O)c1cccc(S(=O)(=O)NCc2ccccc2)c1	0.04	0.92
O=C(Nc1ccccn1)C1CCCN1S(=O)(=O)c1ccc(Cl)cc1 (stereo unspecified)	0.14	0.37
CCOCCCNC(=O)c1ccc2c(=O)n(Cc3ccc4c(c3)OCO4)c(=S)[nH]c2c1	0.44	-0.01
COc1ccc(Cl)cc1S(=O)(=O)N(C)CC(=O)N1CCOCC1	0.41	-2.25
Cn1ncc([N+](=O)[O-])c1C(=O)Nc1cccc(Cl)c1	0.37	-1.01
O=C(OCc1nnc(-c2ccccc2)o1)c1ccc(Br)o1	0.97	0.58
CC(=O)c1cccc(NC(=O)NCc2ccco2)c1	2.09	1.68
Cc1ccc(N=Nc2c(N)nn3c(N)c(C#N)c(C)nc23)cc1	0.35	-0.26
CN1CCN(CC(=O)Nc2nc(-c3c[nH]c4ccccc34)cs2)CC1	1.05	0.44
Cc1sc2nc(SCC(=O)Nc3ccccc3F)[nH]c(=O)c2c1C	0.94	0.71
O=C(c1nnsc1S(=O)(=O)c1ccc(Cl)cc1)N1CCOCC1	5.03	-0.72
Cc1cc(C(=O)N/N=C/c2cccs2)no1	0.04	0.8
Cc1nc(CC(=O)O)c(-c2ccccc2)s1	1.45	1.51
Cc1ccc(C2CC(c3ccccc3OC(F)F)Nc3ncnn32)cc1 (stereo unspecified)	0.32	-0.61
Cc1ccc(CNC(=O)C2CC(c3ccc(C(F)(F)F)cc3)=NO2)o1 (stereo unspecified)	0.37	0.17
O=C(CSc1nnc(NC(=O)C2CC2)s1)NCc1ccccc1Cl	0.71	1.8
CCOC(=O)C1=C(C)Nc2nc3ccccc3n2C1c1ccccc1 (stereo unspecified)	0.57	-0.04
O=c1[nH]c(C2CCCN(S(=O)(=O)c3ccccc3)C2)nc2c1nnn2Cc1ccccc1Br (stereo unspecified)	0.07	-1.05
Cc1cccc(/C=C2\CS/C(=C\c3cccc(C)c3)C2=O)c1	0.1	0.76
Cc1nn(-c2ccccc2)c2c1c(C)c(CCC(=O)NCC1CCCO1)c(=O)n2C (stereo unspecified)	0.48	-0.39
CCOc1cc(CN2CCN(C(=O)c3cccc4ccccc34)CC2)ccc1OC	0.6	0.2
NC(=O)COC(=O)Cc1coc2cc3c(cc12)CCC3	0.27	0.07
CC(C)N1CCC2(CC1)Oc1ccc(Br)cc1C1CC(c3cccnc3)=NN12 (stereo unspecified)	1.76	0.01
O=C(O)CNC(=O)C1COc2ccccc2O1 (stereo unspecified)	0.89	0.89
CC(=O)N1CCc2cc(S(=O)(=O)NCCC(=O)Nc3ccc4c(c3)OCCO4)ccc21	1.3	0.76
O=C(CSc1nnc(CNC(=O)c2ccccc2F)o1)Nc1cccc(C(F)(F)F)c1	0.04	-0.17
CCOc1ccc(S(=O)(=O)N2CCOCC2)cc1NC(=O)C1CSC2(C)CCC(=O)N12 (stereo unspecified)	0.23	-0.51
Fc1ccccc1Cn1nnc(-c2ccc3c(c2)OCO3)n1	0.15	2.18
c1ccc(-n2nnnc2NCCc2c[nH]c3ccccc23)cc1	1.46	-1.63
CCc1ccccc1NC(=O)CSc1nnc(-c2ccco2)n1N	0.06	0.47
CCc1ccc(N2CCN(C(=O)c3ccc(OC)c(OC)c3)CC2)cc1	0.06	0.01
Cc1ccc(-c2nn(C)c(=O)c3ccccc23)cc1S(=O)(=O)NCCN(C)C	0.65	-1.12
CN(C(=O)c1ccncc1)c1nnc(-c2ccccn2)s1	0.87	-1.8
O=C(CSCc1ccccc1F)NCc1ccc(F)cc1	1.02	0.19
O=C1NC(=O)C(Nc2cccc3ccccc23)S1 (stereo unspecified)	0.42	0.37
CC(C)(C)NS(=O)(=O)c1cccc2nsnc12	0.42	-0.02
CN1CCc2c(c3c(n2C)CCN(C)C3c2ccc(F)cc2)C1c1ccc(F)cc1 (stereo unspecified)	0.02	0.89
O=C(NC(=S)Nc1ccccn1)c1cc(-c2ccccc2)nc2ccccc12	1.68	-0.29
COC(=O)/C=C1/S/C(=N/NC(=O)c2ccccc2OC)NC1=O	0.16	0.58
CC(=O)Nc1ccc(S(=O)(=O)NCc2cc(=O)n(C)c(=O)n2C)cc1	0.77	1.22
CC(C)C(=O)NC(c1ccco1)c1ccc2cccnc2c1O (stereo unspecified)	0.17	-1.19
O=C(CN1C(=O)c2ccccc2S1(=O)=O)Nc1ccc(S(=O)(=O)N2CCCC2)cc1	0.4	1.42
Cc1cc2c(s1)c1cnn(CC(=O)NCCc3ccccc3)c(=O)c1n2C	1.72	-0.78
CCOc1ccccc1C(=O)NCC(=O)NCC(c1ccc(OC)cc1)N1CCOCC1 (stereo unspecified)	1.4	-0.29
COc1ccccc1-c1ccc(C(=O)O)o1	0.84	0.05
C/C(=N\S(=O)(=O)c1ccc(C)cc1)NC(=S)Nc1ccccc1	1.16	0.5
CC(=O)N/C(=C/c1ccc2c(c1)OCO2)C(=O)O	0.64	0.96
Cc1onc(-c2ccccc2)c1C(=O)c1c[nH]c(C(=O)NCc2ccccn2)c1	1.2	1.07
COc1ccc(-n2ccnc2CN2CCN(C3CCCC3)C(CCO)C2)cc1 (stereo unspecified)	0.77	0.01
COC(=O)CSc1nnc(C)n1-c1cccc(OC)c1	0.35	-1.07
COc1ccc2cc(/C=C3\SC(=S)NC3=O)c(N3CCOCC3)nc2c1	1.21	-1.28
Cc1onc(C(=O)NCc2ccccn2)c1[N+](=O)[O-]	1.07	-2.15
O=C1CCCN1CC(O)CS(=O)(=O)Cc1ccccc1Cl (stereo unspecified)	0.98	0.14
CCOC(=O)N1CCN(S(=O)(=O)c2ccc3c(c2)CC(C)N3C(C)=O)CC1 (stereo unspecified)	0.16	2.37
Cc1cc(C(=O)CSc2nnc(-c3cccs3)o2)c(C)n1-c1ccccc1	1	-1.26

More structures:
SMILES	KCNQ2 enhance	KCNQ2 enhance baseline
Cc1cc(C)cc(N2CC34C=CC(O3)C(C(=O)OCC(=O)NCc3ccco3)C4C2=O)c1 (stereo unspecified)	0.62	-1.3
COC(=O)[C@@]12CCCCN1[C@H](c1ccc(-c3cc(C(C)=O)cs3)cc1)[C@H]1C(=O)N(C)C(=O)[C@H]12	1.56	-0.46
COc1ccc(OC)c(S(=O)(=O)N2CCC3(CC2)CC(=O)c2ccccc2O3)c1	0.24	1.03
CC(Oc1cc2oc(=O)c3c(c2cc1Cl)CCCC3)C(=O)NCc1ccncc1 (stereo unspecified)	1.43	0.74
CCCCOc1ccc(C(C)NC(=O)C2CCCN(S(=O)(=O)CCC)C2)cc1 (stereo unspecified)	0.1	0.15
CS(=O)(=O)c1ccc(Cl)c(NC(=O)COC(=O)c2cccc(S(=O)(=O)N3CCCC3)c2)c1	1.6	-0.37
Cc1cc(-c2nnc(SCC(=O)Nc3cccc(F)c3)n2N)n[nH]1	0.6	1
CC(C)=C(NC(=O)c1ccco1)C(=O)NCCc1nc2ccccc2[nH]1	0.3	-1.37
CC(=O)Nc1scc(-c2ccccc2)[n+]1-c1ccc(C)cc1	1.65	-1.32
Cc1cc(C)cc(N(CC(=O)NC2CCCC2)C(=O)CNC(=O)c2ccco2)c1	0.69	2.15
Cc1sc2nc(CSCC(=O)N(C)c3ccccc3)[nH]c(=O)c2c1C	0.02	0
O=C(NCC(=O)N1CCN(c2ccccc2O)CC1)c1ccc(Br)o1	0.09	-1.53
CCOc1cc2[nH]c(=S)n(CCC(=O)NCc3ccc(OC)cc3)c(=O)c2cc1OCC	1.16	-0.49
CN(CC(=O)Nc1ccccc1C(F)(F)F)C(=O)c1cc(Cl)nc2ccccc12	1.23	1.19
Cc1cc(OCC(=O)NNC(=O)c2cccs2)ccc1Br	0.79	-0.46
Cc1ccc(NC(=O)NC2CC(=O)N(c3ccc4c(c3)OCCO4)C2)c(C)c1 (stereo unspecified)	0.21	0.08
CCOC(=O)c1cn2c(C)cccc2n1	1.43	0.01
NC(=O)Cc1nc2scc(-c3ccc(Cl)cc3)c2c(=O)[nH]1	0.19	0.71
O=C(O)c1ccc(NCc2cccnc2)cc1	0.88	0.33
Cc1oc2c(c(C)cc3oc(=O)c(CC(=O)N[C@H](C(=O)O)C(C)C)c(C)c32)c1C	1.23	-0.81
O=C(Nc1nc(-c2ccc3c(c2)OCO3)cs1)C1CC1	1.38	-0.99
CC(C)(C)C(=O)N1CCC(O)(CS(=O)(=O)c2ccc(Cl)c(Cl)c2)CC1	0.27	2.08
COC(=O)c1ccc(C(=O)N=c2sccn2C)cc1	0.04	-1.94
Cc1cccc(C)c1NC(=O)CN(C)C(=O)c1ccc(COc2ccccc2)cc1	0.02	-0.46
CCC(C)(C)n1nnnc1C(c1ccc(Cl)cc1)N1CCN(C)CC1 (stereo unspecified)	1.2	-0.81
C/C(N)=C(/C#N)C(=O)COc1ncnc2ccccc12	1.8	-1.45
CCCCS(=O)CC(O)COc1ccc(C(C)(C)C)cc1 (stereo unspecified)	1.08	-1.51
O=C(Cc1ccc(-c2ccccc2)cc1)NCCN1CCOCC1	0.17	-0.57
Cc1ccc(CCNC(=O)c2cc(S(=O)(=O)N3CCOCC3)cn2C)cc1	1.8	0.02
CCCC(=O)NCCc1cc2ccc(C)c(C)c2[nH]c1=O	0.7	-1.42
COc1ccc(Br)c(-c2nnc(CS(=O)(=O)c3ccccc3)o2)c1	0.27	0.23
CCCOCCOC(=O)C1=C(C)NC(=O)NC1c1cc(Cl)c(O)c(OC)c1 (stereo unspecified)	0.66	0.11
CCOC(=O)c1ccc(NC(=O)CSc2nnc(C3CCCCC3)n2C)cc1	0.89	0.06
O=c1[nH]c2cnccc2n1-c1ccccc1	1.14	0.16
CCOC(=O)c1cnc2c(Cl)cccc2c1NCCN(C)C	0.1	-0.93
CC(=O)[C@@H]1[C@@H]2C(=O)N(c3ccccc3F)C(=O)[C@@H]2[C@H]2c3ccccc3C=NN12	0.47	0.4
C=CCN(c1cccc(C(F)(F)F)c1)S(=O)(=O)c1cccc(C(=O)OCC(=O)NC)c1	1.59	0.12
Cc1ccc(CN(C)C(=O)COC(=O)CSc2ccc([N+](=O)[O-])cc2)cc1	0.01	0.37
COc1ccc(CC(=O)N2N=C(C)CC2(O)c2cccnc2)cc1 (stereo unspecified)	0.05	1.6
C=CCn1c(SCC(=O)NCC2CCCO2)nc2c([nH]c3ccccc32)c1=O (stereo unspecified)	1.71	-0.04
CCn1c(=O)c(C(=O)Nc2ccccc2S(N)(=O)=O)c(O)c2ccccc21	8.03*	-0.15*

Fetched by structure from the entries so far, 4 records:
SMILES	KCNQ2 enhance	KCNQ2 enhance baseline
C=CCn1c(SCC(=O)NCC2CCCO2)nc2c([nH]c3ccccc32)c1=O (stereo unspecified)	1.71	-0.04
C=CCN(c1cccc(C(F)(F)F)c1)S(=O)(=O)c1cccc(C(=O)OCC(=O)NC)c1	1.59	0.12
Cc1ccc(CN(C)C(=O)COC(=O)CSc2ccc([N+](=O)[O-])cc2)cc1	0.01	0.37
CCn1c(=O)c(C(=O)Nc2ccccc2S(N)(=O)=O)c(O)c2ccccc21	8.03*	-0.15*
